MbtI inh – MbtI salicylate synthase inhibition; purified MbtI enzyme, fluorescence intensity read-out; inhibition, %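 (about 17 µg/mL by stock and volumes)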; 100,000 tested, 0.89% active; AID 493033;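 active = above 50% in both replicates, above 80% if mildly self-fluorescent; inactive = the rest, strongly fluorescent compounds included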;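 also: 0% = mean of negative and 100% = mean of positive controls; one replicate is shown; some compounds called inactive have numbers as strong as hits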
Target sequence (P9WFX0 whole entry, looked up): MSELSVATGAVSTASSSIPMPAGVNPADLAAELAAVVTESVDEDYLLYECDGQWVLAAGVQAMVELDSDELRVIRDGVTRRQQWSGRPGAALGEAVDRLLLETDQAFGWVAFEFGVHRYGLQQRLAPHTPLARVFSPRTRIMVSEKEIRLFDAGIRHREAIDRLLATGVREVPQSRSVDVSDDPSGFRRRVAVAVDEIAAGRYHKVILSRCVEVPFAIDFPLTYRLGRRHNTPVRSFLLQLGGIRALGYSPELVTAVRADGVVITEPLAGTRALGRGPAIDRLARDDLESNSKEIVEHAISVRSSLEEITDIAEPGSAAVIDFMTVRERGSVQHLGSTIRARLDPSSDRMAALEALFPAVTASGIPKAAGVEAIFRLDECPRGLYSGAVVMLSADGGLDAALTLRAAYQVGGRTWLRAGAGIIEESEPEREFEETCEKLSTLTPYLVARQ
PV pol inh – inhibitors of poliovirus RNA polymerase binding and polymerization; P03300; poliovirus polymerase elongation, fluorescence polarization; hits give low values; % elongation, % (compound at 16.7 µg/mL); 150,000 tested, 0.66% active; AID 588519; in the data active = % elongation below about 90%; also: some results filed as inactive read as strong as hits
MenB inh – Mtb MenB enzyme inhibition; P9WNP5; MenB enzyme assay, absorbance read-out; some hits fall short of the stated cut; inhibition, %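 (about 12 µg/mL by stock and volumes)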; 100,000 tested, 0.43% active;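 active = mean of two replicates above 30%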;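 also: 0% = no compound and 100% = wells with inactive enzyme; the first replicate is given; strong numbers were not always called active; inactives centre near -10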
Target sequence (P9WNP5 whole entry, looked up): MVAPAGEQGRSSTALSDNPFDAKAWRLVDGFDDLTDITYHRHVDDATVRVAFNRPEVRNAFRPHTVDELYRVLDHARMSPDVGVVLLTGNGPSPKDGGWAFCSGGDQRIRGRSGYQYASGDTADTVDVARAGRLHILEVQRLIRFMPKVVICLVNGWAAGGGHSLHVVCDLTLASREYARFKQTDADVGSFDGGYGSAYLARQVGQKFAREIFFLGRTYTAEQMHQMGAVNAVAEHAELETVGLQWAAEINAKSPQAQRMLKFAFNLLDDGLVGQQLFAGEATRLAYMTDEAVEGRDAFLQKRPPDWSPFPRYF
PV pol inh intensity – further read-out of PV pol inh, marked with its call; % elongation; measured here: total intensity read-out; formula for this scale not given here;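 total fluorescence in place of polarization; lower means less elongation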
Numbers without * were called inactive; x = no result given.

SMILES	MbtI inh	PV pol inh	PV pol inh intensity	MenB inh
COCC(C)n1c(C)cc(C(=O)COC(=O)c2ccc(N3CCCC3=O)cc2)c1C (stereo not drawn)	-8	103	104	-14
Cc1c(C(=O)NC2CCS(=O)(=O)C2)oc2ccccc12 (stereo not drawn)	x	102	102	-7
COC(=O)c1c(NC(=O)C(C)C)sc2c1CCC2	21	100	102	7
N#CC(C#N)=C1C=C(c2ccc(O)cc2)Oc2ccccc21	3	104	136	-38
COc1ccc(C(C)(C)C)cc1NC(=O)c1ccoc1C	-5	99	102	8
O=C(COC(=O)C1(c2ccccc2F)CCCC1)NCc1ccccc1	-2	99	101	x
Nc1cc(C(=O)O)ccc1NCC1CCCO1 (stereo not drawn)	x	96	105	15
O=C(CSc1nnc(CNC(=O)c2ccco2)n1-c1cccc(C(F)(F)F)c1)Nc1ccc(F)cc1	2	102	103	-8
COc1ccc(CCN=C(C)c2c(O)cc(C)oc2=O)cc1	4	102	108	-4
O=C1c2ccccc2C(=O)N1c1cccc(-c2csc(=Nc3ccccc3)n2CCO)c1	x	103	104	-29
Cc1ccc2oc(=O)c3cc(C(=O)N4CCN(C)CC4)sc3c2c1	3	102	102	-16
Cn1nc(C(=O)N2CCOCC2)c2ccccc2c1=O	-12	103	104	-7
Cc1cc(NC(=O)CN(C)Cc2c(C)nn(-c3ccccc3)c2C)no1	1	102	96	-23
COc1ccc(CN(Cc2ccccc2)Cc2nnnn2C(C)(C)C)cc1	-5	103	103	-65
CCOC(=O)C12CCC(C(=O)O)(CC1)CC2	-9	104	108	x
CC(NC(=O)C12CC3CC(CC(C3)C1)C2)C(=O)N(C)C (stereo not drawn)	-5	102	103	-34
CC(NCc1ccc(C(=O)O)s1)c1ccccc1 (stereo not drawn)	-6	103	105	-13
COc1ccc(NC(=S)N(Cc2ccco2)Cc2cc3cc(C)c(C)cc3[nH]c2=O)cc1	22	100	104	5
COc1ccc2cc(C(N)=O)/c(=N\NC(=O)c3ccccc3)oc2c1	96	96	104	-26
O=C(NN1CCOCC1)C12CC3CC(CC(C3)C1)C2	-14	100	105	-3

The list goes on (two carried over from the part before).
SMILES	MbtI inh	PV pol inh	PV pol inh intensity	MenB inh
COc1ccc2cc(C(N)=O)/c(=N\NC(=O)c3ccccc3)oc2c1	96	96	104	-26
O=C(NN1CCOCC1)C12CC3CC(CC(C3)C1)C2	-14	100	105	-3
O=C(c1ccc(S(=O)(=O)N2CCCCCC2)cc1)N1CCN(c2ccccn2)CC1	2	101	103	-23
O=C(OCc1cccs1)c1ccc(-c2nc3ccccc3s2)s1	-1	101	101	-25
O=C(NCCCO)Nc1ccc(Cl)cc1	33	100	103	9
Nc1ccc(OCCN2CCCCC2)cc1	1	101	102	-3
O=C(O)CSc1ccc(Br)c2cccc(Cl)c12	2	100	103	x
CN(Cc1nnc(-c2ccccc2)o1)C1CCCCC1	-4	98	104	14
CC1(C)CSC(=NC2CCCCC2)N1	-8	102	104	x
O=C(Cn1c(=O)oc2ccccc21)NCc1ccccc1	-10	109	118	-13
NC(=S)Nc1ccc(S(N)(=O)=O)cc1	x	101	100	-15
COc1cccc(C2Nc3ccccc3NC3=C2C(=O)CCC3)c1 (stereo not drawn)	10	100	103	3
O=C(Nc1ccc(-c2cn3c(n2)SCC3)cc1)c1ccc2nonc2c1	5	100	133	2
Cc1c(Cl)c(C(F)(F)F)nn1CCCNC(=O)C1CCCC1	-9	99	104	-28
CC(=O)Nc1nc2c(c(-c3ccccc3)c1C#N)CCCCC2	12	103	104	-15
O=C(NNc1ncnc2ccccc12)c1ccncc1	5	x	x	-48
O=C(c1ccc2c(c1)N(Cc1ccc(F)cc1)CCS2)N1CCOCC1	68	98	101	8
COc1ccc(CNCc2ccc(N(C)C)cc2)cc1	x	103	115	7
CC1(C)CCc2cc(S(=O)(=O)NCc3ccc(S(N)(=O)=O)cc3)ccc2O1	-6	100	104	-22
O=C(NCC1CCCO1)c1cc2cc(Br)ccc2oc1=O (stereo not drawn)	-12	103	107	x
C=C1Cn2c(nc3sc(C)c(C)c3c2=O)S1	-4	100	101	0
COc1ccccc1N1CCN(c2nc(-c3cccnc3)nc3ccccc23)CC1	9	98	108	-27
Cc1nn(CC(=O)N(C(C)C)C(C)C)c(C)c1S(=O)(=O)NC(C)(C)C	2	105	100	10
CCC1C(=O)N=C(SCC(=O)Nc2ccc(Br)cn2)NC1=O (stereo not drawn)	2	101	104	-43
COc1ccccc1C1CC(=O)Nc2c1ccc(C)c2C (stereo not drawn)	-5	100	103	7
CC(O)c1cc(NC(=O)c2ccccc2)c(=O)oc1/C=C/N(C)C (stereo not drawn)	x	45	256	-32
O=C(O)CSc1ncnc2sccc12	-3	100	104	-26
Cc1cc(Nc2cccc(C(F)(F)F)c2)nc2ccc(NC(=O)CSc3ccncc3)cc12	-60	104	98	-24
CSc1ncc(C(=O)Nc2nc(CN3CCCCC3)cs2)n1-c1ccc(F)cc1	8	105	101	7
Cc1ccccc1CN(C)CC(=O)Nc1ccccc1F	1	102	101	-1
O=C(CSc1n[nH]c(=O)n1Cc1ccccc1)c1ccc(S(=O)(=O)N2CCCC2)cc1	10	105	96	-13
N#C/C(=C\Nc1ccccn1)C(=O)c1ccccc1	-4	104	102	-29
COc1ccc(-c2n[nH]c(=S)n2-c2ccccc2)cc1OC	x	105	108	-8
O=C(Nc1ccccc1Cl)NC1(C(=O)N2CCCCC2)CCCCC1	-7	100	102	16
CCOC(=O)c1[nH]c2ccccc2c1NC(=O)c1ccc(S(=O)(=O)N2CCCC2)cc1	-8	103	106	-30
COc1ccccc1C(=S)N1CCCCC1	32	101	102	-9
Cc1ccc(-n2c(=O)c3ccc(C(=O)NCc4ccco4)cc3n(Cc3cccc(C)c3)c2=O)cc1	-5	104	108	-3
CCOC(=O)c1cc2sccc2n1CC(=O)NC(C)C	4	105	103	-11
CN1C(C(=O)NCc2ccccc2)=CC(c2ccco2)=NS1(=O)=O	-4	106	110	-40
C=CC[n+]1ccc2ccccc2c1	x	97	101	8
CCC(=O)Nc1ccc(C(=O)CSc2nc3ccccc3n2CCC#N)cc1	-13	102	104	-20
O=C1NC(=S)S/C1=C\c1ccccc1OCC(=O)N1CCCC1	10	109	106	-313
NNS(=O)(=O)c1ccc(Br)cc1	-8	101	106	x
CC(NC(=O)c1ccco1)C(=O)OCc1cccc(Cl)c1 (stereo not drawn)	-12	109	102	-35
O=C(Oc1ccc2cc(-c3ccc(F)cc3)c(=O)oc2c1)c1ccco1	-59	101	104	-14
O=C(Nc1nc2ccccc2[nH]1)c1cccc(Oc2ccccc2)c1	0	103	105	x
COc1ccc(CN2C(=O)c3cccnc3C2=O)cc1S(=O)(=O)N(CC(C)C)CC(C)C	-5	104	102	-37
O=C(Oc1ccccc1)C1CCCN(C(=O)c2ccc(Cl)cc2)C1 (stereo not drawn)	-14	x	x	-13
Cc1c(C#N)c2ccccc2n1CCOc1cccc2ccccc12	33	103	104	-26
O=C(c1cnn2c3c(cnc12)CCCCC3)N1CCCCC1	-3	98	101	15
O=C(CN1CCN(Cc2ccc(Cl)cc2)C1=O)NCc1ccccc1Cl	0	98	104	6
CCNc1c(NS(=O)(=O)c2cccs2)c(=O)oc2ccccc12	-2	103	102	-16
CC1CCCCC1NS(=O)(=O)c1ccc2c(c1)CC(=O)N2C (stereo not drawn)	-4	100	103	5
COC(CNC(=O)c1cn(C)c2ccc(S(=O)(=O)N3CCCC3)cc2c1=O)OC	-4	101	102	-19
COC(=O)c1ccc([C@H]2C(C#N)=C(N)C(C#N)(C#N)C3=CCC(C(C)(C)C)C[C@@H]32)cc1 (stereo partly drawn)	x	104	116	-33
COC(=O)Nc1ccc(N=Cc2cccs2)cc1	x	105	97	0
c1nc(Oc2ccc(-c3nnco3)cc2)c2c3c(sc2n1)CCCC3	-7	104	111	11
O=C(CN1CCSc2ccccc21)Nc1ccc(N2CCOCC2)cc1	-10	107	103	10
FC(F)(F)c1ccc(-c2noc(C3CCCCC3)n2)cc1	-29	101	103	-16
Nc1cc(=O)[nH]c(=O)n1C1CC1	3	102	104	15
CN(C)C(=O)COC(=O)c1ccc(C#N)cc1	-17	105	110	-10
O=C(NCc1ccccc1Cl)c1ccc2c(Cl)c3c(nc2c1)CCCC3	4	101	104	-12
The list continues:
SMILES	MbtI inh	PV pol inh	PV pol inh intensity	MenB inh
Cc1ccc(C)c(OC(=O)C2CC(=O)N(c3ccc4c(c3)OCCO4)C2)c1C (stereo not drawn)	-14	106	107	-26
O=C(C1=NNC2C(=O)N(c3ccccc3)C(=O)C12)c1cccnc1 (stereo not drawn)	x	106	104	2
Cc1ccc2c(c1)c1c(n2CC(O)CO)C(=O)CCC1 (stereo not drawn)	-25	100	102	-23
CC(O)C(=O)N/N=C/c1ccccc1 (stereo not drawn)	19	101	101	-25
CN(C)c1ccc2nc3c(nc2c1)C(=O)c1ccccc1C3=O	11	102	101	-6
Cc1ccccc1CC#N	-2	98	102	6
COc1cccc(C2N(Cc3ccccc3)C(=O)C2(F)F)c1OC (stereo not drawn)	0	89*	69*	x
Cn1c(SCC(=O)Nc2cc(C(C)(C)C)nn2-c2ccccc2)nnc1C1CC1	15	101	96	-20
CC(C1CC2CCC1C2)n1c(SCC(=O)c2ccc(Cl)s2)nnc1-c1cccs1 (stereo not drawn)	-8	108	108	-15
O=C(Nc1ccc(F)c(Cl)c1)c1cc(S(=O)(=O)N2CCC3(CC2)OCCO3)ccc1F	-14	101	104	3
Cc1ccccc1Nc1c(-c2ccsc2)nc2c[n+](CC(N)=O)ccn12	12	100	93	-88
CCN(CC)c1nc(-c2ccccc2)c2cc(Cl)ccc2n1	-1	95	110	-1
O=C(CNc1ccccc1)N/N=C/c1ccc(O)cc1	-11	95	100	-11
Cc1cccc(N2CCN(C(=O)COc3ccc(C#N)cc3)CC2)c1C	-8	101	104	x
COc1ccc(CCN(C)CCC(=O)Nc2c(C)cc(C)cc2C)cc1OC	x	104	116	-7
O=C1c2cccnc2C(=O)N1Cc1ccc(S(=O)(=O)Nc2ccc(F)cc2)s1	9	100	101	-19
CCCN(CCC)C(=O)/C=C/c1ccc(OC)c(OC)c1	-8	103	107	x
CCN(CC)C(=O)N1c2ccccc2Sc2ccccc21	-8	102	102	31
CC(Cn1c(=S)[nH]c2c(oc3ccccc32)c1=O)c1ccccc1 (stereo not drawn)	-4	102	102	-23
COc1cc(OC)c(NC(=O)N2CCC(CN3CCc4ccccc4C3)CC2)cc1Cl	-4	100	105	3

Whole records from above:
O=C(Nc1ccc(F)c(Cl)c1)c1cc(S(=O)(=O)N2CCC3(CC2)OCCO3)ccc1F across the screens: MbtI inh: -14; PV pol inh: 101; PV pol inh intensity: 104; MenB inh: 3
CC(O)C(=O)N/N=C/c1ccccc1 (stereo not drawn) across the screens: MbtI inh: 19; PV pol inh: 101; PV pol inh intensity: 101; MenB inh: -25

The listing continues.
SMILES	MbtI inh	PV pol inh	PV pol inh intensity	MenB inh
CC(C)NC(=O)N1CCn2cccc2C1C(C)C (stereo not drawn)	1	99	101	4
C=CCOc1ccc(NC(=O)c2ccc(C)cc2)cc1	1	100	103	-4
CCOC(=O)c1c(C)noc1CP(=O)(c1ccccc1)c1ccccc1	8	100	102	-13
Cc1ccc(-c2coc3cc4oc(=O)c5c(c4cc23)CCC5)cc1	13	101	102	-7
CCCCn1c(SCC(=O)NCc2cccs2)nnc1C(CC)N(C)C (stereo not drawn)	-11	102	100	-24
CCc1ccc(O)c(C(=O)c2cnc3onc(C(C)C)c3c2)c1	-3	106	108	-14
O=C(O)c1ccc(NC(=O)c2cccc(Br)c2)cc1	10	99	103	-17
NC(=O)CCN1CCOCC1	-6	103	104	3
CN1CCN(C(=S)c2cccc(OCc3ccccc3)c2)CC1	33	101	100	-11
Cc1ccc2c(CC(=O)N(Cc3nnc(-c4ccccc4)o3)C(C)C)coc2c1	8	102	103	-9
C=CCn1c(C)cc(C(=O)CSc2nnc(N)s2)c1C	9	99	104	4
O=C(c1cccc(C(=O)N2CCN(c3ccccc3)CC2)c1)N1CCN(c2ccccc2)CC1	-4	98	103	11
CN1C=C(C(F)(F)F)C=CC1=C(C#N)C#N	18	105	110	-132
CN1C(=O)/C(=C/C=C2\SCCN2C)OC1=S	-6	115	134	-60
Cc1cc(C(F)(F)F)nn1CCCNC(=O)c1cccs1	-14	101	103	-4
N#Cc1ccccc1OCC(=O)Oc1ccc2c(c1)OCO2	-4	92	98	-7
C=C(C)c1cccc(C(C)(C)NC(=O)Nc2ccc(C)cn2)c1	17	103	104	-5
CCN(c1ccccc1)S(=O)(=O)c1ccc(NCc2cccnc2)nc1	-3	100	99	-15
O=c1[nH]c2ccccc2n2c(=S)[nH]nc12	24	101	107	-28
Cc1cccc(COC(=O)Nc2ccc(N3CCCCC3)cc2)c1	-9	100	104	-13
O=C1CN(C(=O)CSc2nc(-c3cccs3)cn2-c2ccccc2)c2ccccc2N1	5	128	131	-2

Some of the entries so far, bar-delimited.
SMILES | MbtI inh | PV pol inh | PV pol inh intensity | MenB inh
C=C(C)c1cccc(C(C)(C)NC(=O)Nc2ccc(C)cn2)c1 | 17 | 103 | 104 | -5
CN1C=C(C(F)(F)F)C=CC1=C(C#N)C#N | 18 | 105 | 110 | -132
NC(=O)CCN1CCOCC1 | -6 | 103 | 104 | 3
CN1CCN(C(=S)c2cccc(OCc3ccccc3)c2)CC1 | 33 | 101 | 100 | -11
N#Cc1ccccc1OCC(=O)Oc1ccc2c(c1)OCO2 | -4 | 92 | 98 | -7
CCN(c1ccccc1)S(=O)(=O)c1ccc(NCc2cccnc2)nc1 | -3 | 100 | 99 | -15

Source: PubChem

Random draw from the library (roughly 1.8% active in at least one column).
